Screening data as filed in PubChem BioAssay.
RGS16-Gao HTS: modulates binding between human RGS16 and Galphao | O15492+P09471 | bead-based flow cytometry RGS16-Galphao binding, fluorescence; actives lie on both sides | binding response (% of control), % at 10 µM | 0.38% of 220,000 active | AID 1441;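 active = below 25% or above 175%, edge rows of some plates excepted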;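 note: Galphao activated by GDP with aluminum fluoride before binding; 100% = wells without compound and 0% = beads without RGS; some results beyond the cut were filed as inactive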
Target sequence (O15492 whole entry, looked up): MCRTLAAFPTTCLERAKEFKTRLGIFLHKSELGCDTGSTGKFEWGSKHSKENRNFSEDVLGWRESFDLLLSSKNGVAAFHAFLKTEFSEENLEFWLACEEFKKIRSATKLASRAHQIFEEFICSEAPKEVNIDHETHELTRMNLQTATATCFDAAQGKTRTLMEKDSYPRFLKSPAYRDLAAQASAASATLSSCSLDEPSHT
Target sequence (P09471 whole entry, looked up): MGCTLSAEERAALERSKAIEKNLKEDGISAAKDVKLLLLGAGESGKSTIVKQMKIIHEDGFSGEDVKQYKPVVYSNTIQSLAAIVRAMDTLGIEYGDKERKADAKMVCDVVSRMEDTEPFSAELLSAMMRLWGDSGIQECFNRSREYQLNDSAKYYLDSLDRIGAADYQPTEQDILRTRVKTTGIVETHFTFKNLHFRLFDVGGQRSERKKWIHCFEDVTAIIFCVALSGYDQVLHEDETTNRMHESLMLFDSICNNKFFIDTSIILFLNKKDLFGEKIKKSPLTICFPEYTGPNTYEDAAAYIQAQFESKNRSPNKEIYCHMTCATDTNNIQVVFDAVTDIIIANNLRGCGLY
GALR2 ag: activates the human galanin receptor 2; O43603; GALR2-expressing cells, agonist activation read-out; activation, %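 (tested at 5 µM)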; 0.48% of 140,000 active; AID 803;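 active = above mean plus 3 SD of all compounds, about 5% in these data, not always enough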;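 note: 0% = vehicle buffer wells and 100% = reference agonist at full effect; tested in CHO reporter cells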
Target sequence (O43603 whole entry, looked up): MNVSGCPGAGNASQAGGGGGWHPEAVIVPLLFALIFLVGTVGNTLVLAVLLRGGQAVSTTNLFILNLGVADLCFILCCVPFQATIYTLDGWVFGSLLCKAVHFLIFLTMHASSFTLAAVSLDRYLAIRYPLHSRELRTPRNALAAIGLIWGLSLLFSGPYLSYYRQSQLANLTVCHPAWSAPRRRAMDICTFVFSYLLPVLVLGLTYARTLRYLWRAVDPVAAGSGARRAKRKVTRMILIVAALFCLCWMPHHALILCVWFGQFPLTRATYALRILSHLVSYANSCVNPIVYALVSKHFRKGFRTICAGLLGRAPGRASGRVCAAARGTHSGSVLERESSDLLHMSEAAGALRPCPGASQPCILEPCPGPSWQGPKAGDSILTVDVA
Insulin prom inh: TRM-6 insulin promoter activity inhibition. TRM-6 cells (human fetal islet line), insulin promoter-eGFP reporter, imaging; reporter expression induced with tamoxifen. inhibition, % at 2 µM. 0.9% of 130,000 active;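 active = inhibition above the mean plus 3 SD, with well images judged a real hit on visual review, cut at about 60% in these data, passing the limit was not always enough; inconclusive = inhibition over the cutoff but images rejected on review; inactive = inhibition not above the cutoff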
HSV augment: increases HSV replication in cells; AID 1956; maximum fold increase; HSV replication augmentation in cells, fold increase; 0.005% of 220,000 active;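 active = peak rise of 1.5-fold or more in the series; inconclusive = self-fluorescent or not available for retest; tested in PC3 cells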;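 note: first round at 10 µM; read as green reporter fluorescence; hits show the peak of a series up to 25 µM; 1 = signal of infected wells without compound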
PKD1 inh: blocks activity of human protein kinase D1; Q15139; PKD1 kinase fluorescence polarization assay; inhibition, %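 (about 10 µM by stock and volumes)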; 0.056% of 200,000 active;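 active = inhibition of 50% or more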;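 note: controls were vehicle for no effect and a reference inhibitor for full effect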
Insulin prom inh cell count: further read-out of Insulin prom inh, marked with its call; normalized cell count, %; measured here: cell count, toxicity; reference of the scale not given here;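 cells exposed to compound for 48 h; stained nuclei by imaging scaled within each plate; lower means fewer cells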
HSV augment primary fold: also measured in HSV augment; calls as there; fold increase; compound at 10 µM; measured here: primary screen fold increase 10 uM; tested in PC3 cells;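 GFP signal in the first replicate; 1 = infected wells without compound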
An asterisk follows results filed as active; i = inactive; ? = inconclusive; / = not tested or not shown; & = joins results of further samples. A portion of the library (hit frequency here may not be typical).

SMILES	RGS16-Gao HTS	GALR2 ag	Insulin prom inh	Insulin prom inh cell count	HSV augment	HSV augment primary fold	PKD1 inh
c1ccc(C2CC3CC(c4ccco4)N2O3)cc1 (centres undefined)	101	-1.3	5	129	i	1	-12
Cc1ccc(S(=O)(=O)N2CN3CCN(C3)C2)cc1	105	0.1	-86	40	i	0.91	-5
COc1ccc(OC)c(-n2c(O)c(C=Nc3c(C)n(C)n(-c4ccccc4)c3=O)c(=O)[nH]c2=O)c1	96	-1.2	-50	93	i	0.95	0
O=C1/C(=C\c2ccc3c(c2)OCO3)N2CCC1CC2	103	-5.2	/	/	i	1	-5
c1cc(C2N3CCCN2CC3)ccn1 (centres undefined)	101	/	/	/	i	0.99	/
CN1CCc2nc(N)c(C#N)c(-c3ccccc3)c2C1	89	-1.4	4	178	i	0.97	8
O=C(NCCO)c1nsnc1NCCCl	99	/	37	69	i	0.96	1
O=C1NC(=O)C2(Cc3ccccc3N3CCCC32)C(=O)N1 (centres undefined)	87	-1.1	25	99	i	1.1	-8
CCCCn1c(O)c(C=NCCN2CCCCC2)c(=O)[nH]c1=O	101	-1.2	/	/	i	1	-5
CCOc1ccc([N+](=O)[O-])cc1CNCCc1ccccc1	102	/	/	/	i	0.93	-4
N#CC1=C(N)Oc2c(c(=O)oc3ccccc23)C1c1ccc([N+](=O)[O-])o1 (centres undefined)	95	/	/	/	i	1.1	-4
CCOC(=O)C1(CCCc2ccccc2)CCN(C2CCCC2)CC1	105	/	-36	81	i	0.84	-6
O=C1NC(=O)C(=Cc2ccc(OCCOc3ccc([N+](=O)[O-])cc3)cc2)C(=O)N1	104	/	-7	88	i	0.95	-5
C=CCC1(CN2CCCCCC2=O)C(=O)NC(=O)NC1=O	104	-2.0	-118	40	i	0.99	-20
CCOC(=O)C(=CNc1ccc(C(O)(C(=O)OCC)C(F)(F)F)cc1C)C(=O)OCC (centres undefined)	103	2.2	-33	120	i	0.81	4
CC(C)CN(CC(C)C)C(=O)C1C2c3ccccc3C(c3ccccc32)C1C(=O)O (centres undefined)	41	/	/	/	i	1	2
Cc1cc(NC(=O)C(Cl)(Cl)Cl)no1	103	/	/	/	i	0.97	/
COc1ccccc1N1C(=O)NC(=O)/C(=C\c2cnn(-c3ccccc3)c2)C1=O	100	/	/	/	i	1	2
CCN1C(=O)N(CC)C(=O)C2(Cc3ccccc3N3CCN(c4ccccc4)CC32)C1=O (centres undefined)	99	/	/	/	i	0.83	/
COC(=O)C(O)(c1ccc(NC(=O)NC2CCCCC2)cc1)C(F)(F)F (centres undefined)	101	-2.1	0	117	i	0.93	-1
CCOP(=O)(OCC)C(O)c1ccccc1 (centres undefined)	101	/	/	/	i	0.95	/
CCc1c(C)nc(N)nc1N1N=C1SCCOc1ccccc1	99	/	/	/	i	0.99	1
CCOC(=O)C1CCN(/C=C2/C(=O)NC(=O)N(c3cccc(C)c3C)C2=O)CC1	38	/	/	/	i	1	0
Cc1nc2ccc(Cl)cc2c(-c2ccccc2)c1C(=O)O	102	-1.5	/	/	i	0.94	3
CCOC(=O)CC1=C(C(=O)OCC)C2(C(=O)Nc3ccccc32)C(C#N)=C(N)O1 (centres undefined)	103	-1.8	55	70	i	0.95	0
Next compounds follow.
SMILES	RGS16-Gao HTS	GALR2 ag	Insulin prom inh	Insulin prom inh cell count	HSV augment	HSV augment primary fold	PKD1 inh
Clc1ccc(C(c2ccccc2)c2ncc[nH]2)cc1 (centres undefined)	106	-0.5	-19	107	i	1	2
COc1ccc2cc(C(=O)C3CCCN(C4CCOCC4)C3)ccc2c1 (centres undefined)	104	/	/	/	i	0.8	3
OC(CNC1CCCCC1)c1ccccc1 (centres undefined)	102	-1.1	-67	123	i	1	-4
C/C(=N\N1CCN(C)CC1)c1c(O)n(Cc2ccccc2)c(=O)[nH]c1=O	100	0.1	/	/	i	1.2	-3
CCSP1(=S)N=C(N2CCOCC2)C(C#N)=C2CCCN21 (centres undefined)	100	-0.3	9	105	i	0.9	-5
COc1ccc(O)c(C(C)(C)C)c1	109	/	7	81	i	0.94	2
Cn1cccc1/C=C1/C(=O)NC(=O)N(Cc2ccc(F)cc2)C1=O	109	/	/	/	i	0.91	/
CCN(CC)C(=O)c1ccc(NC(=O)CCCSc2ccccc2)cc1	101	/	-42	96	i	1.2	-7
CC(C)Sc1nnc([C@@H](N)Cc2ccccc2)o1	98	-0.5	-11	77	i	1.2	-1
O=C1NC(=O)C(=Cc2ccc3c(c2)OCO3)C(=O)N1	105	/	/	/	i	0.94	-5
CC(O)(CS(=O)(=O)c1cccc(C(F)(F)F)c1)C(=O)Nc1ccc(C(F)(F)F)cc1 (centres undefined)	103	-2.6	-12	106	i	0.94	-10
COCCCn1c(N)c(C(=O)NCCC(C)C)c2nc3ccccc3nc21	102	33*	-15	76	i	0.77	-5
N#CC(C#N)=NNc1ccc(S(N)(=O)=O)cc1	108	/	/	/	i	0.85	/
CCN(CCO)c1ccc(N=Cc2c(O)n(C)c(=S)[nH]c2=O)cc1	100	/	/	/	i	1	/
O=C(COC(=O)c1ccc(O)cc1)Nc1ccc(Cl)cc1C(=O)c1ccccc1	101	0.9	/	/	i	1.1	-6
CNC(=S)NC1CC2CCCC(C1)N2CC(C)C (centres undefined)	95	-1.9	30	56	i	0.98	0
CCOCC(=O)NC1CCSC1=O (centres undefined)	-36	-2.6	13	91	i	1	9
CC(=O)Nc1ccc([As](=O)(O)c2ccc([N+](=O)[O-])cc2)cc1	89	/	/	/	i	1.2	/
O=c1[nH]c(=S)n(Cc2ccc(F)cc2)c(O)c1C=NCc1ccc2c(c1)OCO2	99	/	/	/	i	0.97	/
Cc1ccc(OCC(=O)N2CCN(C3CCC(c4ccccc4)CC3)CC2)cc1 (centres undefined)	107	/	/	/	i	0.92	-2
CC(=O)c1c(C)n(CCCOC(C)C)c2ccc(O)cc12	84	-2.0	-38	118	i	0.95	6
Cc1cc(OCc2nn[nH]n2)c2c3c(c(=O)oc2c1)CCC3	97	-0.5	/	/	i	0.8	-13
COc1ccc(CC2C(=O)NC(=O)N(c3ccccc3)C2=O)c(OC)c1 (centres undefined)	103	-2.7	/	/	i	1.1	-8
O=c1[nH]c(=S)n(CCC2=CCCCC2)c(O)c1C=NCc1cccnc1	100	-1.5	-3	105	i	1	-6
O=c1[nH]c(=O)n(CCc2ccccc2)c(O)c1C=NC1CC1	98	/	/	/	i	1	/

The last seven records of the section above are carried over, then new ones follow:
SMILES	RGS16-Gao HTS	GALR2 ag	Insulin prom inh	Insulin prom inh cell count	HSV augment	HSV augment primary fold	PKD1 inh
O=c1[nH]c(=S)n(Cc2ccc(F)cc2)c(O)c1C=NCc1ccc2c(c1)OCO2	99	/	/	/	i	0.97	/
Cc1ccc(OCC(=O)N2CCN(C3CCC(c4ccccc4)CC3)CC2)cc1 (centres undefined)	107	/	/	/	i	0.92	-2
CC(=O)c1c(C)n(CCCOC(C)C)c2ccc(O)cc12	84	-2.0	-38	118	i	0.95	6
Cc1cc(OCc2nn[nH]n2)c2c3c(c(=O)oc2c1)CCC3	97	-0.5	/	/	i	0.8	-13
COc1ccc(CC2C(=O)NC(=O)N(c3ccccc3)C2=O)c(OC)c1 (centres undefined)	103	-2.7	/	/	i	1.1	-8
O=c1[nH]c(=S)n(CCC2=CCCCC2)c(O)c1C=NCc1cccnc1	100	-1.5	-3	105	i	1	-6
O=c1[nH]c(=O)n(CCc2ccccc2)c(O)c1C=NC1CC1	98	/	/	/	i	1	/
COCCCN=Cc1c(O)[nH]c(=S)[nH]c1=O	99	/	/	/	/	/	-6
O=C1NC(=O)C(CCc2ccncc2)(CCc2ccccn2)C(=O)N1c1ccc(Br)cc1 (centres undefined)	102	/	-71	93	i	1	-2
O=[N+]([O-])c1ccc(N2CCCC2)cc1N/N=C1\CN2CCC1CC2	100	-0.9	19	117	i	0.76	9
C=CCc1cc(C=C2C(=O)N(C)C(=O)N(C)C2=O)cc(OCC)c1OCc1ccccc1	90	-1.6	/	/	i	0.96	6
Cc1ccc(-n2c(C)nc3ccccc3c2=O)c(C)c1	98	/	/	/	i	1.2	/
CC(C)N1CCN(Cc2ccccc2C(F)(F)F)CC1CCO (centres undefined)	109	/	-9	76	i	1.1	0
Nc1ccnn1C1CCNCC1	100	-4.9	-6	112	i	0.89	-4
CCOC(=O)c1nsnc1NCCCl	106	/	/	/	i	0.88	1
O=[N+]([O-])c1ccc(C2[C@H]3C(c4ccccc4)=NC4(CCCCC4)N23)cc1 (some centres undefined)	104	-0.7	-84	124	i	1.2	6
O=C(NC1CN2CCC1CC2)c1ccc(-c2ccc([N+](=O)[O-])cc2)o1 (centres undefined)	100	-0.6	-80	30	i	0.83	-10
CCCCCCC(=O)N/N=C/c1c(O)n(C(C)CC)c(=S)[nH]c1=O (centres undefined)	97	/	/	/	i	1	/
CC(C)CCNC(=O)c1cc(C(=O)c2cc(Br)ccc2O)cn(CCC(C)C)c1=O	63	/	8	83	i	0.94	-4
O=c1c2ccccc2nc(Cc2ccccc2)n1-c1cccc(O)c1	96	/	/	/	i	1.1	-2
CCCCn1c(N)c(C(=O)NCc2cccs2)c2nc3ccccc3nc21	92	36*	14	160	i	1	0
Clc1ccc2c(c1)C(c1ccccc1Cl)=NCc1nnc(N3CCN(CCOc4ccccc4)CC3)n1-2	98	1.6	-28	93	i	0.88	-9
O=c1[nH]c(=S)n(-c2ccccc2)c(O)c1/C=N/N1CCOCC1	98	-0.9	/	/	i	1	-14
COCCCn1c(N)c(C(=O)OCCOC)c2nc3ccccc3nc21	101	0.7	/	/	i	1	2
COC(=O)[C@@H]1C[C@@]1(C)[C@@H](NP(=O)(c1ccccc1)c1ccccc1)c1ccccc1	107	-2.7	14	86	i	0.96	1
CN1CCN(c2ccc([N+](=O)[O-])c(Sc3nncn3C)c2)CC1	108	/	/	/	i	0.94	-2
CC(=O)Nc1cc([As](=O)(O)O)ccc1O	94&98	-1.1	0	88	i	0.71&0.92	-8
CSc1ncc(CN2CCCC(C(=O)c3sccc3C)C2)cn1 (centres undefined)	95	/	/	/	i	0.93	-2
CCN(CC)S(=O)(=O)c1cc(NC(=O)C(C)N2CC=C(c3ccccc3)CC2)ccc1C (centres undefined)	103	-0.2	-29	88	i	1	0
Clc1ccccc1CNC1CN2CCC1CC2 (centres undefined)	119	-2.1	16	93	i	1	2
COc1ccc(-n2c(Cc3ccccc3)nc3ccccc3c2=O)cc1	102	/	/	/	i	1	-11
Cc1cccc(CN2CCN(CC(=O)N3CCC4(CC3)OCCO4)C2=O)c1	99	-0.9	39	89	i	0.93	-2

3 compounds from above, showing only GALR2 ag.
structure | GALR2 ag
Cc1cccc(CN2CCN(CC(=O)N3CCC4(CC3)OCCO4)C2=O)c1 | -0.9
COC(=O)[C@@H]1C[C@@]1(C)[C@@H](NP(=O)(c1ccccc1)c1ccccc1)c1ccccc1 | -2.7
O=[N+]([O-])c1ccc(C2[C@H]3C(c4ccccc4)=NC4(CCCCC4)N23)cc1 (some centres undefined) | -0.7

Next part.
SMILES	RGS16-Gao HTS	GALR2 ag	Insulin prom inh	Insulin prom inh cell count	HSV augment	HSV augment primary fold	PKD1 inh
Cc1nc2cc([N+](=O)[O-])ccc2c(=O)n1-c1ccccc1[N+](=O)[O-]	123	/	28	52	i	1.1	-4
O=C(O)c1cc2ccccc2oc1=O	101	-1.3	/	/	i	1	-1
CCCCCCn1c(O)c(C=Nc2ccccc2N2CCOCC2)c(=O)[nH]c1=S	106	/	/	/	i	0.96	/
c1cnc2c(c1)ccc1ncccc12	101	/	/	/	i	0.98	/
CC1(C)OC1COc1c2occc2cc2ccc(=O)oc12 (centres undefined)	104	-0.9	38	131	i	0.83	-8
CC(=O)Nc1cc(C(=O)N2CCC3(CC2)OCCO3)ccc1S(=O)(=O)c1ccc(C)cc1	101	-0.9	54	74	i	0.98	8
Cc1ccc(/C=C2\C(=O)NC(=S)N(c3ccc(F)cc3)C2=O)s1	79	/	-60	92	?	/	1
CC1(C)COC(Nc2ccc(Cl)cc2)=N1	107	-1.1	-5	143	i	0.98	1
